HNF4A DNA FP = change in binding of human HNF4 alpha to DNA; P41235; HNF4a-FITC DNA binding, fluorescence polarization, 1 h; activity change, % at 10 µM; actives 0.3% (n = 360,000); in the data active = activity change above about 30%, passing the limit was not always enough;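 note: controls were the assay level and a saturating level of protein; the project sought stronger binding though the title names inhibitors; some compounds called inactive have numbers as strong as hits; positive values seem to mean higher polarization but the record does not say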
Target sequence (P41235 whole entry, looked up): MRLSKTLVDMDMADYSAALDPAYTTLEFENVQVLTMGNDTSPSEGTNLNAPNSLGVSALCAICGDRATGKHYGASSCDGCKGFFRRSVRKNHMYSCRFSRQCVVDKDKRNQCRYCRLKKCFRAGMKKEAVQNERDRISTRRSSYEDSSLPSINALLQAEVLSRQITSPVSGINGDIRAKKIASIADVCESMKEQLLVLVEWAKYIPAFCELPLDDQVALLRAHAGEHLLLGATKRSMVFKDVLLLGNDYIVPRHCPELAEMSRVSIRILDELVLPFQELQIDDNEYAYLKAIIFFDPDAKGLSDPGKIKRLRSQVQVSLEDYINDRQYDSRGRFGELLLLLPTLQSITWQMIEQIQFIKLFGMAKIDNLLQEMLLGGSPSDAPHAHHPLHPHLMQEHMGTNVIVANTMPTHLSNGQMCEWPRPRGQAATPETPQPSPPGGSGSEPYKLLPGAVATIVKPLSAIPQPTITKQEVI
Ecoli growth = blocks Escherichia coli growth | OD600, 23 h; active compounds read low | OD600 absorbance (no concentration beside the values) | actives 0.21% (n = 330,000) | AID 1053175;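 active = OD600 absorbance below the run mean of sample wells minus 3.6 SD, in any replicate, cut at about 0.56 in these data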;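 note: stock transfer was 300 nL into about 60 µL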
rRNA inh HTS = inhibitors of bacterial rRNA selective over humanized ribosomes; E. coli WT GFP vs humanized-ribosome RFP mutants, fluorescence, 24 h; active compounds read low; DMSO median 0, no signal -100; GFP signal change (wild-type ribosome), % (concentration not given with the values); actives 1.6% (n = 350,000); AID 720706;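 active = significant combined selectivity score with lowered wild-type GFP, culture density cut under 30%, mutant RFP and density less affected; inactive = any of these conditions unmet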; note: one replicate is shown; some compounds called inactive have numbers as strong as hits
ALR H2O2 inh = human ALR oxidase inhibition via reduced H2O2; purified ALR, DTT oxidation, H2O2 HRP-luminol luminescence; actives 3.8% (n = 290,000); P55789; inhibition, % (concentration not given with the values);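 active = mean and each replicate at 75% or more; inconclusive = only one of the two met; inactive = neither met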;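 note: stock transfer was 7.5 nL into about 7.5 µL; 0% = neutral wells and 100% = wells with inactivated enzyme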
AF4-AF9 inh = MLL-AF4/AF9 protein interaction inhibition; P42568; AlphaScreen, biotin-AF4 peptide binding to FLAG-AF9; inhibition, % at 10 µM; actives 0.47% (n = 350,000); AID 651704;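 active = every replicate reaching a set inhibition limit, whatever the replicate mean, cut at about 25% in these data; inconclusive = mean inhibition reaches that limit but some replicates miss it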;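 note: 0% = plate neutral control median and 100% = total signal loss; the record names both 10 and 1 µM as test concentration; the first replicate is given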
Target sequence (P42568 whole entry, looked up): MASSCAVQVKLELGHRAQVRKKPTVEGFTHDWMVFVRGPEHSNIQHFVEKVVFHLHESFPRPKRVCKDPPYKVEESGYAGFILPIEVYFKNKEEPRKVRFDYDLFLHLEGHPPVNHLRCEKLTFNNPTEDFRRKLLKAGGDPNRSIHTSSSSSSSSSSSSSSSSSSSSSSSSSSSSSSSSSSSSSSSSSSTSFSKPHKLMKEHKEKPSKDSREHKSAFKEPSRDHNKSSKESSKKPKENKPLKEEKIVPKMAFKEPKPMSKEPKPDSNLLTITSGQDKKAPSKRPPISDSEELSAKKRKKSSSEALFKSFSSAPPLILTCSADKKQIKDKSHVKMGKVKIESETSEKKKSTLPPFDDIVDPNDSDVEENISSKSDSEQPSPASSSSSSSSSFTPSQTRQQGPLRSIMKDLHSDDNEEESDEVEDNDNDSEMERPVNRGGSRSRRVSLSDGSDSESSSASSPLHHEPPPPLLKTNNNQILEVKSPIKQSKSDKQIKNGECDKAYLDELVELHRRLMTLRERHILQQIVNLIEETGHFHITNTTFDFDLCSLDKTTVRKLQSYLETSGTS
Vif A3G = inhibitors of Vif binding to APOBEC3G peptide, primary screen, biochemical, TR-FRET, GST-Vif 1-94, biotin-A3G peptide, dose response retest (AID 1117319); TR-FRET GST-Vif / biotin-A3G peptide binding; higher % means a stronger effect; test concentration not given here; strong numbers were not always called active; inhibition, %, or IC50 in µM where a hit was titrated; actives 0.57% (n = 260,000);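 active = above the screen mean plus three standard deviations and confirmed in dose response; inconclusive = results disagree or hit not tested in dose response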;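 note: Vif residues 1-94 fused to GST binding biotinylated APOBEC3G peptide 110-148; 0% = full assay without inhibitor and 100% = GST in place of GST-Vif; retest series ran down from 100 µM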
FGF22 binding = shifts melting point of recombinant human FGF22. calls only at 9.99 µM. actives 1.5% (n = 340,000). recombinant FGF22 thermal shift, SYPRO orange fluorescence; percent of sucrose octasulfate shift, DMSO zero;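 active = melting point raised past a set limit in the mean and every replicate; inconclusive = no clear call; three in four hits are not shown here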
rRNA inh HTS OD600 = also measured in rRNA inh HTS; calls as there; OD600 change, %; measured here: OD600 growth;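 optical density of the mix in the first replicate; 0 = DMSO median and -100 = no signal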
rRNA inh HTS RFP = also measured in rRNA inh HTS; calls as there; RFP signal change, %; measured here: RFP humanized mutant strains;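 first replicate; 0 = DMSO median and -100 = no signal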
* = called active by the depositor; i = inactive; ? = inconclusive; . = no result given; & = joins results of further samples. The list is partial; count on the stated rates, not on these rows.

Second line of a record: HNF4A DNA FP | Ecoli growth | rRNA inh HTS | rRNA inh HTS OD600 | rRNA inh HTS RFP | ALR H2O2 inh | AF4-AF9 inh | Vif A3G | FGF22 binding
CCOc1ccc(N2CC(=O)N(c3ccc(OCC)cc3)CC2=O)cc1
  2.1 | 0.68 | . | . | . | -10 | . | -3% | .
COc1ccc(N2CCN(C(=O)c3ccc(-n4nc(C)cc4C)cc3)CC2)cc1
  1.8 | 0.7 | . | . | . | 53 | . | -7% | .
CCOc1ccc(CN(C)C(=O)c2ccc(NS(=O)(=O)c3ccc4[nH]c(=O)[nH]c4c3)cc2)cc1
  0.6 | 0.69 | -17* | -8.2* | 5.4* | -10 | -1.9 | 3% | i
O=C(NC(=S)NC1CCCc2ccccc21)c1ccc(F)cc1 (centres undefined)
  -0.5 | 0.65 | -7 | -22 | -0.4 | -3 | 2.1 | 5% | i
Cc1ccc(CCN2CC(C(=O)NCCCN3CCCCCC3)CC2=O)cc1 (centres undefined)
  25 | 0.73 | . | . | . | -8 | . | -1% | .
CCN(C(=O)Cn1c(=O)oc2ccccc21)C1CCS(=O)(=O)C1 (centres undefined)
  1.3 | 0.75 | . | . | . | -14 | . | ? | .
CCC(=O)N[C@@H]1C=C[C@@H](CC(=O)NCc2ccccc2OC)O[C@@H]1CO
  . | . | 2 | 4 | -2.1 | . | -2.3 | . | i
CC1(C(=O)NCc2ccccc2)CSCC(=O)N1CC(F)(F)F (centres undefined)
  2.2 | . | 15 | 17 | -0.6 | . | -1.0 | . | i
CCC(C)(C)N1CC(=O)N(Cc2ccccc2)C(c2ccc(OC)cc2)C1=O (centres undefined)
  0.9 | 0.79 | . | . | . | -10 | . | -2% | .
NC(=O)c1cc2cc(Cl)ccc2oc1=Nc1cccc(C(F)(F)F)c1
  3.7 | 0.75 | 4 | 6 | 1.1 | 91* | 2.6 | -1% | i
CCc1nnc(NC(=O)Cc2ccc(OC)cc2)s1
  -5.0 | 0.69 | . | . | . | . | . | 6% | .
CCOc1cc(CO)c(Br)cc1OCC(=O)O
  . | 0.67 | . | . | . | -2 | . | -1% | .
COC(=O)[C@@]1(Cc2ccc(F)cc2)[C@H]2c3cc(C(=O)N(C)C)n(C)c3C[C@H]2CN1C(=O)c1ccccc1
  -8.5 | . | 9 | 5 | -0.4 | . | 8.8 | . | i
C[C@@H]1CCCCO[C@@H](CN(C)C(=O)c2ccncc2)[C@H](C)CN([C@H](C)CO)C(=O)c2cc(NS(=O)(=O)c3ccc(Cl)cc3)ccc2O1
  . | . | -1 | -7 | 0.7 | . | -0.8 | . | i
CCCN(C)C[C@@H]1Oc2ncc(-c3cccnc3)cc2C(=O)N([C@H](C)CO)C[C@@H]1C
  . | . | 7 | 10 | 0.0 | . | -2.3 | . | i

Entries of single compounds from above. Values in the order: HNF4A DNA FP, Ecoli growth, rRNA inh HTS, rRNA inh HTS OD600, rRNA inh HTS RFP, ALR H2O2 inh, AF4-AF9 inh, Vif A3G, FGF22 binding
CCCN(C)C[C@@H]1Oc2ncc(-c3cccnc3)cc2C(=O)N([C@H](C)CO)C[C@@H]1C reads ., ., 7, 10, 0.0, ., -2.3, ., i
CCc1nnc(NC(=O)Cc2ccc(OC)cc2)s1 reads -5.0, 0.69, ., ., ., ., ., 6%, .
NC(=O)c1cc2cc(Cl)ccc2oc1=Nc1cccc(C(F)(F)F)c1 reads 3.7, 0.75, 4, 6, 1.1, 91*, 2.6, -1%, i

3 compounds already listed, ordered by SMILES length, high to low.
Second line of a record: HNF4A DNA FP | Ecoli growth | rRNA inh HTS | rRNA inh HTS OD600 | rRNA inh HTS RFP | ALR H2O2 inh | AF4-AF9 inh | Vif A3G | FGF22 binding
CCCN(C)C[C@@H]1Oc2ncc(-c3cccnc3)cc2C(=O)N([C@H](C)CO)C[C@@H]1C
  . | . | 7 | 10 | 0.0 | . | -2.3 | . | i
CCC(C)(C)N1CC(=O)N(Cc2ccccc2)C(c2ccc(OC)cc2)C1=O (centres undefined)
  0.9 | 0.79 | . | . | . | -10 | . | -2% | .
NC(=O)c1cc2cc(Cl)ccc2oc1=Nc1cccc(C(F)(F)F)c1
  3.7 | 0.75 | 4 | 6 | 1.1 | 91* | 2.6 | -1% | i

The list continues:
Second line of a record: HNF4A DNA FP | Ecoli growth | rRNA inh HTS | rRNA inh HTS OD600 | rRNA inh HTS RFP | ALR H2O2 inh | AF4-AF9 inh | Vif A3G | FGF22 binding
CC1(C(=O)NCc2ccc3c(c2)OCO3)CCN1C(=O)Cc1cccc2ccccc12 (centres undefined)
  5.2 | . | -16 | -44 | -2.5 | . | -0.7 | . | i
COC(=O)c1ccc(NC(=O)c2cccc(NC(=O)c3ccccc3)c2)cc1
  -1.9 | 0.72 | -10 | -7 | 0.2 | -4 | 2.7 | . | i
Cc1ccccc1NC(=O)CC1S/C(=N/c2nccs2)N(C)C1=O (centres undefined)
  -1.9 | . | . | . | . | -4 | . | 1% | .
Fc1ccc(-c2cc(-c3ccccc3)nc(-n3cccn3)n2)cc1
  3.4 | 0.69 | 4 | 2 | 1.8 | -48 | 0.2 | . | i
COc1ccc2oc(C(=O)OCC(=O)Nc3cccc(S(=O)(=O)N4CCOCC4)c3)c(C)c2c1
  6.5 | 0.65 | -1 | -7 | -3.3 | 0 | 0.4 | 1% | i
COc1ccc(NC(=O)Nc2cccc3c2O[C@@H](CN(C)Cc2ccc(Oc4ccccc4)cc2)[C@H](C)CN([C@@H](C)CO)C3=O)cc1
  . | . | -4 | -5 | 0.8 | . | -2.3 | . | i
O=C(COC(=O)C1=COCCO1)NC1CCCCC1
  -2.2 | 0.69 | 5 | 13 | 0.1 | 6 | -13 | 21% | i
Cc1nc(Nc2ccccc2)sc1C(=O)Nc1ccccc1
  0.0 | 0.65 | -22* | -15* | 3.4* | -3 | . | -4% | i
COc1ccc(C(CNC(=O)c2ccc3c(c2)C(=O)N(CCC(C)C)C3=O)N2CCOCC2)cc1 (centres undefined)
  2.0 | 0.71 | . | . | . | . | . | 7% | .
CCOc1ccc(NC(=O)CN(C)C(=O)CCc2nc3ccccc3c(=O)[nH]2)cc1OCC
  -0.9 | . | 5 | 22 | -4.5 | . | -6.0 | . | i
COc1ccc(CN(C)C[C@H]2Oc3ccc(NS(=O)(=O)c4cn(C)cn4)cc3CC(=O)N([C@H](C)CO)C[C@H]2C)cc1
  . | . | 5 | -2 | 2.7 | . | -2.2 | . | i
CC(=O)N(C)C[C@H]1Oc2cc(-c3ccccc3)ccc2S(=O)(=O)N([C@H](C)CO)C[C@H]1C
  . | . | -4 | -5 | 1.9 | . | -0.8 | . | i
CCCNC(=O)[C@@H]1[C@@H](CO)[C@@H]2Cn3c(cccc3=O)[C@H]1N2C(=O)NCCC
  . | . | 2 | 6 | -2.1 | . | -0.5 | . | i
O=C(NCCCN1CCCC1=O)C(=O)NCC1OCCN1S(=O)(=O)c1cc(F)ccc1F (centres undefined)
  -1.7 | . | 3 | 1 | 1.2 | . | 1.9 | . | i
CCOC(=O)c1cn(Cc2cccc(Cl)c2)c2cc(C)nn2c1=O
  3.7 | 0.68 | -1 | 3 | -1.7 | 1 | -15 | 6% | i

Structures above marked active in ALR H2O2 inh:
Second line of a record: HNF4A DNA FP | Ecoli growth | rRNA inh HTS | rRNA inh HTS OD600 | rRNA inh HTS RFP | ALR H2O2 inh | AF4-AF9 inh | Vif A3G | FGF22 binding
NC(=O)c1cc2cc(Cl)ccc2oc1=Nc1cccc(C(F)(F)F)c1
  3.7 | 0.75 | 4 | 6 | 1.1 | 91* | 2.6 | -1% | i

(listing goes on)
Second line of a record: HNF4A DNA FP | Ecoli growth | rRNA inh HTS | rRNA inh HTS OD600 | rRNA inh HTS RFP | ALR H2O2 inh | AF4-AF9 inh | Vif A3G | FGF22 binding
FC(F)(F)c1cnc2c(-c3ccccc3)n[nH]c2c1
  -1.0 | 0.67 | -3 | -4 | -2.8 | . | -0.1 | -3% | i
NC(=O)c1cccc(C(N)=O)n1
  -0.6 | 0.66 | 8 | 6 | -7.8 | -2 | -9.6 | -8% | i
Nc1c(C(O)(C(F)(F)F)C(F)(F)F)cc(C(O)(C(F)(F)F)C(F)(F)F)c2ccccc12
  3.5 | 0.66 | . | . | . | -26 | . | 8% | .
C[C@H](CO)N1C[C@H](C)[C@@H](CN(C)S(=O)(=O)c2cccc(F)c2)Oc2cc(C#CCN(C)C)ccc2S1(=O)=O
  . | . | -8 | -2 | -0.4 | . | 7.1 | . | i
CCCCn1cnc2c(SCc3ccc(Cl)cc3)nc(N)nc21
  1.2 | 0.67 | . | . | . | . | 0.5 | 0% | i
CC(C)CC#Cc1cnc2c(c1)C(=O)N([C@@H](C)CO)C[C@@H](C)[C@@H](CN(C)Cc1cncnc1)O2
  . | . | 2 | 0 | -0.2 | . | -4.9 | . | i
CC(C)NC(=O)c1ccc2c3n(nc2c1)-c1ccccc1CO3
  0.1 | 0.66 | . | . | . | -1 | . | . | .
CCCc1cc(=O)[nH]c(SCC(=O)c2ccc(S(=O)(=O)N3CCCC3)cc2)n1
  3.2 | 0.66 | . | . | . | . | . | -8% | .
O=C(Nc1ccc(F)cc1)N1C[C@H]2[C@@H](c3ccccc31)[C@H](CO)N2C(=O)c1ccccc1F
  . | . | 1 | -1 | -1.6 | . | -9.6 | . | i
Cn1c(=O)c2c(nc(CN3CCN(C(=O)c4ccco4)CC3)n2CC(N)=O)n(C)c1=O
  -2.4 | 0.63 | 15 | 10 | 3.8 | -1 | -0.5 | -4% | i
COc1ccc(S(=O)(=O)Nc2ccc3c(c2)C(=O)N([C@H](C)CO)C[C@H](C)[C@@H](CN(C)Cc2ccc4c(c2)OCO4)O3)cc1
  . | . | -3 | -13 | 2.5 | . | -0.8 | . | i
C[C@@H]1CN([C@H](C)CO)C(=O)c2cc(NS(=O)(=O)c3ccc(F)cc3)ccc2O[C@@H](C)CCCCO[C@H]1CN(C)S(=O)(=O)c1cccs1
  . | . | 5 | 5 | 19 | . | -3.8 | . | i
O=S(=O)(c1ccc2c(c1)oc1ccccc12)N1CCOCC1
  -1.1 | 0.68 | . | . | . | 0 | . | -5% | .
Cc1c(/C=N\NC(=O)c2csc3ccccc23)cnn1C
  -0.4 | . | . | . | . | -6 | . | 69% | .
O=C1CCN(Cc2ccccc2)N1
  -4.3 | 0.68 | 10 | 9 | 3.3 | 3 | -1.4 | -2% | i

(continued)
Second line of a record: HNF4A DNA FP | Ecoli growth | rRNA inh HTS | rRNA inh HTS OD600 | rRNA inh HTS RFP | ALR H2O2 inh | AF4-AF9 inh | Vif A3G | FGF22 binding
CC(=O)c1c(Nc2cccc(F)c2)oc(C)cc1=O
  5.1 | 0.7 | -1 | 4 | -3.1 | . | -1.5 | 10% | i
O=C(NCCCn1ccnc1)C1CC(c2cccc(Br)c2)=NO1 (centres undefined)
  -3.9 | 0.72 | -1 | 4 | 0.8 | 2 | -5.8 | -2% | i
CCCC1(c2ccccc2)NC(=O)N(CC(=O)c2[nH]c(C)c(C(=O)OCC)c2C)C1=O (centres undefined)
  -1.1 | 0.76 | . | . | . | -13 | . | 2% | .
O=C(C[C@H]1C[C@@H]2c3cc(NC(=O)C4CCC4)ccc3O[C@@H]2[C@@H](CO)O1)NCc1cccnc1
  . | . | 2 | -7 | -0.7 | . | -9.6 | . | i
CCn1c(SCC(=O)c2ccc(O)c(O)c2)nnc1-c1ccccc1OC
  -7.3 | 0.81 | . | . | . | 99* | . | 16%&19% | .
COc1ccc(N2CCN(C(=O)C3=NNC(=O)CC3)CC2)cc1
  2.4 | 0.74 | 13 | 7 | 3.2 | 59 | 1.1 | -3% | i
CCOC(=O)CC1COCCN1C(=O)c1ccc2oc(Cc3ccccc3)nc2c1 (centres undefined)
  1.5 | . | 10 | 12 | 2.4 | 0 | 1.4 | . | i

From PubChem BioAssay
